MT1-MMP act inh – blockers of MT1-MMP proenzyme processing, primary screen, HT1080 RFP-PRO-GFP cells, GFP/RFP fluorescence. GFP/RFP ratio fluorescence, overnight; percent of plate control window, DMSO zero. 0.061% of 360,000 active. GFP/RFP ratio change, % at 20 µM. Matrix metalloproteinase-14 (Homo sapiens), P50281;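 active means GFP/RFP ratio change of at least 30% with cell ATP level not reduced by more than half and red fluorescence within 50% of control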; further: strong numbers were not always called active
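system = RFP-PRO-GFP reporter HT1080 cells | dosing = 20 µM single dose, 1% DMSO | timing = overnight cell settling, then overnight compound exposure, 37 °C, 5% CO2 | read-out basis = GFP/RFP fluorescence ratio | controls = DMSO and RFP-L50D-GFP cell wells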
Rce1 inhib – yeast Rce1p protease inhibitors, primary screen, biochemical, fluorescence, cell-free homogeneous; calls only; 0.27% of 290,000 active; yeast membranes, quenched prenylated peptide cleavage fluorescence; CAAX prenyl protease 2 (Saccharomyces cerevisiae (strain ATCC 204508 / S288c)), Q03530; AID 2563, 2010;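 active means fall in fluorescence gain of 50% or more versus controls, with final raw signal at or below 3038400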;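 further: plate controls were neutral control wells for no effect and wells lacking membranes for full effect; tested at 10 µM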
Target sequence (Q03530 whole entry, looked up): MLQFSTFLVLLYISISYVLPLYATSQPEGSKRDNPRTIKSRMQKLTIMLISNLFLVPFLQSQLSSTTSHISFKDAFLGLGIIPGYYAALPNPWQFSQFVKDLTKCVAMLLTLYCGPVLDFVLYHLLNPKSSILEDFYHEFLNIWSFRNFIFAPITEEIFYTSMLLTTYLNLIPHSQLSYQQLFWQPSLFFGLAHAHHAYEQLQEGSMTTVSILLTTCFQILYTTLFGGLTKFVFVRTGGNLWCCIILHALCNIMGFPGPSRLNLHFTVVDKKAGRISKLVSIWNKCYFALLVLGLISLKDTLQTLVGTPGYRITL
Env fusion inh – inhibitors of HIV-1 Env-driven cell-cell fusion, primary screen, HeLa-JRFL effector, CEM21 target cells, luciferase | inhibition, % at 12.3 µM | 1.1% of 360,000 active;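 active means mean replicate inhibition score of at least 50 and every replicate individually at or above 50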;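 further: 0% = plate neutral controls and 100% = maraviroc near 300 nM; one replicate is shown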
MT1-MMP act inh RFP – second read-out of MT1-MMP act inh, no call of its own (marks repeat the call); RFP signal change, %; measured here: RFP expression control read;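 0 = vehicle wells; hits needed this value within 50% of zero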
* hit, by the source's call; i = inactive; . = not tested or not shown; [ ] = dose if it differs, or a comment. These rows are one share of the data; count on the stated rates, not on these rows.

Below each compound – MT1-MMP act inh | Env fusion inh | Rce1 inhib | MT1-MMP act inh RFP
CN1CCN(C(=O)C[C@@H]2CC[C@@H]3[C@H](COC[C@@H](O)CN3C(=O)Nc3ccc4c(c3)OCO4)O2)CC1
  . | 1[16.7 µM] | . | .
COc1ccc2c3c(n(C)c2c1)[C@@H](CO)N(Cc1ccccc1)CC31CCN(C(=O)Nc2cccc(F)c2)CC1
  . | 40[16.7 µM] | . | .
CC(=NNC(N)=O)c1ccc(Cl)c(-n2cccc2)c1
  . | -5 | . | .
CO[C@H]1CN(C)C(=O)c2ccc(NC(=O)C3CC3)cc2OC[C@@H](C)N(C(=O)c2ccncc2)C[C@@H]1C
  . | -1[16.7 µM] | . | .
COc1ccc(OC)c(C(=O)COC(=O)COc2ccccc2F)c1
  0 | . | . | -3
COc1ccccc1NS(=O)(=O)c1cccc(C(=O)N/N=C(/C)c2ccc(-n3ccnc3)cc2)c1
  0 | . | . | -8
O=C(NC(CSC(=O)c1ccccc1)C(=O)O)OCc1ccccc1 (stereo not drawn)
  -3 | . | . | 3
COC(=O)c1c(-c2ccc(N(C)C)cc2)oc2c1C(OC)CCC2 (stereo not drawn)
  -1 | . | . | 0
C[C@@H](c1ccccc1)N1C[C@H](COCc2ccccc2)Oc2cc(N3CCC[C@@H]3CO)ccc2S1(=O)=O
  -7 | . | . | -9
CN(c1ccccc1)S(=O)(=O)c1ccc(C(=O)N2CCCC2)cc1
  3 | . | . | 1
O=C(CC1CC2CCC1C2)N1CCN(S(=O)(=O)c2ccccc2F)CC1 (stereo not drawn)
  -6 | . | . | 0
CSC1=NC=C(C#N)C2=NC(c3c(Cl)cccc3Cl)NN12 (stereo not drawn)
  7 | . | . | 6
C[C@H](c1ccccc1)N1C[C@H](COCc2ccccc2)Oc2cc(N3CCC[C@@H]3CO)ccc2S1(=O)=O
  -9 | . | . | -13
CCCCC[C@@H](C)N1C[C@@H](COCc2ccccc2)Oc2cc(N3CC[C@H](O)C3)ccc2S1(=O)=O
  0 | . | . | -6
O=C(OCCN1C(=O)c2ccccc2C1=O)C1CC(O)CN1S(=O)(=O)c1ccc(Cl)cc1 (stereo not drawn)
  1 | . | . | 2
O=C1/C(=C\c2ccc(Cl)c(Cl)c2)CN(C(=O)CCN2CCOCC2)C/C1=C/c1ccc(Cl)c(Cl)c1
  -11 | . | . | -31
CCCCC[C@@H](C)N1C[C@H](COCc2ccccc2)Oc2cc(N3CC[C@@H](O)C3)ccc2S1(=O)=O
  -8 | . | . | -12
O=C(Nc1ccccc1)OCCc1ccccc1
  0 | . | . | 0
Cc1cc(C)c(NC(=O)Nc2ccccc2)c(C)n1
  -3 | . | . | 3
CCCCC[C@H](C)N1C[C@@H](COCc2ccccc2)Oc2cc(N3CCC[C@H]3COC)ccc2S1(=O)=O
  -4 | . | . | -10
CN(NC(=O)NN(C)C(=O)c1ccccc1)C(=O)c1ccccc1
  -1 | . | . | 3
CC1(CO)CCCC1NCCNC1CCCC1(C)CO (stereo not drawn)
  5 | . | . | 8
COC(=O)c1ccc(CCc2cc(O)ccc2O)cc1
  5 | . | . | -22
CC12CC(O)C3C(CCC4=CC(=O)CCC43C)C1CCC2=CCO (stereo not drawn)
  -1 | . | . | -3
CN(Cc1ccccc1)Cc1ccccc1C(O)c1ccccc1 (stereo not drawn)
  -1 | . | . | -3
C=C1C(=O)OC2C1CCC(C)C1C=CC(=O)C12C (stereo not drawn)
  -4 | . | . | -17
COc1ccc2nc(N3C(=O)C(O)=C(C(=O)c4ccco4)C3c3ccc(C)o3)sc2c1 (stereo not drawn)
  14 | . | . | -3
Cc1nc2c(Br)cc(Br)cc2c(=O)n1-c1ccccc1NC1OCC(O)C(O)C1O (stereo not drawn)
  -2 | . | . | 3
Cc1ccc(S(=O)(=O)N(C)c2ccc(OCC(=O)Nc3ccc(C(=O)N(C)C)cc3)cc2)cc1C
  2 | . | . | 0
COc1ccc(CCN2C(=O)CCC3=C2CCC3=O)cc1OC
  3 | . | . | 7
COCCN(C(=O)c1oc2ccccc2c1COC)c1c(N)n(CC(C)C)c(=O)[nH]c1=O
  3 | . | . | 6
O=C1OC(c2cc(Br)c(O)c(Br)c2)c2ccccc21 (stereo not drawn)
  -1 | . | . | -2
COc1ccc(CN2C(=O)C(CC(=O)NCC3CCCCC3)CC(C(=O)N3CCOCC3)=C2C)cc1 (stereo not drawn)
  -1 | . | . | 3
O=C(COC(=O)c1n[nH]c(=O)c2ccccc12)Nc1ccccc1
  1 | . | . | 3
CCOc1ccc(C2OCCC(C)O2)cc1OC (stereo not drawn)
  -3 | . | . | 5
CC(C)C[C@@H]1COc2cccc(N3CCC[C@@H]3CO)c2S(=O)(=O)N1
  5 | . | . | 3
O=C(COC(=O)Cc1ccsc1)Nc1ccc(Br)cc1F
  1 | . | . | 1
CN(C)c1ccc2c(c1)C(=NO)c1ccccc1-2
  5 | . | . | 1
C[C@H](c1ccccc1)N1C[C@H](COCc2ccccc2)Oc2cc(N3CC[C@@H](N(C)C)C3)ccc2S1(=O)=O
  0 | . | . | -3
CCNc1nc(NC(C)C)nc(-c2ccncc2)n1
  2 | . | . | 2
O=[N+]([O-])C1C(c2ccccc2)C12c1ccccc1-c1ccccc12 (stereo not drawn)
  7 | . | . | -4
COCCCN1C(=O)C(CC(=O)NC2CCCCC2)CC(C(=O)N2CCOCC2)=C1C (stereo not drawn)
  2 | . | . | 4
CCC(c1nnnn1-c1ccc2c(c1)OCCO2)N1CCN(c2ccc(F)cc2)CC1 (stereo not drawn)
  0 | . | . | -28
O=C(O)C(=Cc1cc2c(cc1[N+](=O)[O-])OCO2)c1cc2c(cc1Br)OCO2
  0 | . | . | 0
CN(CCNC(=O)c1c[nH]c2c1ccc1ccccc12)CCNC(=O)c1c[nH]c2c1ccc1ccccc12
  3 | . | . | 1

Entries of single compounds from above.
Record of `O=C(O)C(=Cc1cc2c(cc1[N+](=O)[O-])OCO2)c1cc2c(cc1Br)OCO2` : MT1-MMP act inh = 0; Env fusion inh = .; Rce1 inhib = .; MT1-MMP act inh RFP = 0
Record of `CN(C)c1ccc2c(c1)C(=NO)c1ccccc1-2` : MT1-MMP act inh = 5; Env fusion inh = .; Rce1 inhib = .; MT1-MMP act inh RFP = 1

(more compounds)
Below each compound – MT1-MMP act inh | Env fusion inh | Rce1 inhib | MT1-MMP act inh RFP
COC1=CC(=NCl)C=CC1=NCl
  8 | . | . | 13
Cc1ccc(S(=O)(=O)Nc2ccc3nc(C)oc3c2)cc1
  -3 | . | . | -22
N=C(N)c1ccc(N=Nc2c(O)ccc3c2[nH]c2ccccc23)cc1
  4 | . | . | -4
Cc1ccc(C(=O)CN2C(=O)NC3(CCc4ccccc43)C2=O)s1 (stereo not drawn)
  -4 | . | . | 0
CN(C)CCC1(C2=CCCC2)CC/C(=C/c2ccc(Cl)cc2)C1=O (stereo not drawn)
  -3 | . | . | -2
CN(CC(=O)Nc1ccc(F)c(F)c1F)C(=O)c1ccc2c(c1)NC(=O)CS2
  0 | . | . | -1
CC1CC2(CC(CN(C3CCCCC3)C3CCCCC3)OC2=O)C(=O)O1 (stereo not drawn)
  4 | . | . | 6
CN1CCN(S(=O)(=O)c2ccc(SCCOc3ccc(Cl)cc3)nc2)CC1
  0 | . | . | -7
O=C(NCc1cccnc1)c1cccc(S(=O)(=O)Nc2ccc(F)cc2)c1
  1 | . | . | -7
Cc1ccc(CNC(=O)CN2c3cccc4cccc(c34)S2(=O)=O)cc1
  0 | . | . | -2
NCCCCC(C(=O)O)N(C(=O)OCc1ccccc1)C(=O)OCc1ccccc1 (stereo not drawn)
  4 | . | . | 1
Cc1cccc(C)c1N1CCN(C(c2cc3ccccc3o2)c2nnnn2C(C)(C)C)CC1 (stereo not drawn)
  4 | . | . | -32
COCOCCn1cc(CN2CCS(=O)(=O)N(Cc3ccc(-c4ccc(OC)cc4)cc3)C(C(C)C)C2=O)nn1 (stereo not drawn)
  4 | . | . | -8
CCOc1ccc(C=NNc2ccc(S(=O)(=O)Nc3ccccc3C(=O)O)cc2[N+](=O)[O-])cc1OC
  11 | . | . | 3
CC1CCCCC12NC(=O)N(CC(=O)N1CCN(S(=O)(=O)c3ccc4c(c3)CCC4)CC1)C2=O (stereo not drawn)
  1 | . | . | 1
N#CC1C(=O)NC(=O)C(C#N)C12CCCC(C(F)(F)F)C2 (stereo not drawn)
  1 | . | . | 2
CCCn1c(SCC(=O)NCC(=O)Nc2ccc(F)c(F)c2F)nc2ccccc2c1=O
  -1 | . | . | 2
Cc1ccc(-c2noc(CC(=O)c3ccc([N+](=O)[O-])cc3)n2)cc1
  0 | . | . | 0
N#Cc1c(-c2ccc(Cl)cc2)n(O)c2ccccc12
  3 | . | . | -32
COc1ccc(N=Nc2c(N)nn(C)c2N)cc1
  6 | . | . | -5
OCC1CSC(=S)N1Cc1ccccc1 (stereo not drawn)
  2 | . | . | 3
COc1cc(OC)c(OC)cc1CNC(=O)c1cccc(S(=O)(=O)N2CCc3ccccc3C2)c1
  -3 | . | . | -31
COc1ccc(C2C(=O)NN=C2C)cc1 (stereo not drawn)
  -6 | . | . | 0
C[C@@H](c1ccccc1)N1C[C@H](COCc2ccccc2)Oc2cc(N3CC[C@@H](N(C)C)C3)ccc2S1(=O)=O
  -10 | . | . | -9
O=c1c2c([nH]n1-c1ccccc1)C[C@@H](C1CCCCC1)O[C@H]2c1ccc(F)cc1
  6 | . | . | -1
S=c1nn[nH]c2ccccc12
  0 | . | . | -1
CCOC(=O)/C=c1/s/c(=C/c2ccc3cc(OC)ccc3c2)c(=O)n1CC(=O)NCc1ccc2c(c1)OCO2
  -41 | . | . | 3
O=C(C=Cc1ccccc1)c1cccs1
  -4 | . | . | 0
CN(Cc1cn(Cc2ccc(C(F)(F)F)cc2)nn1)C1CN(Cc2cn(Cc3ccc(C(F)(F)F)cc3)nn2)S(=O)(=O)C1 (stereo not drawn)
  15 | . | . | -28
CCOC(=O)/C=c1/s/c(=C/c2ccc3cc(OC)ccc3c2)c(=O)n1CC(=O)NCC1CCCO1 (stereo not drawn)
  -17 | . | . | 6
CC(=O)Nc1ccc(NC(=O)C(C)Oc2ccc(C)nc2[N+](=O)[O-])cc1 (stereo not drawn)
  -1 | . | . | 5
CCOC(=O)CCCCCCCCC(=O)Nc1ccc(-n2[nH]c(=O)cc2C)cc1
  -2 | . | . | 3
COc1ccc(NS(=O)(=O)N2CCCCC2)cc1
  -1 | . | . | 2
Nc1nc(SCc2ccccc2)c2ncn(C3CCCCC3)c2n1
  4 | . | . | -12
O=C(C(=NNc1ccccc1)c1ccccc1)c1ccccc1
  -5 | . | . | -11
COc1ccc(-c2oc3c4c2C(=O)OCCOC4CCC3)cc1 (stereo not drawn)
  3 | . | . | 0
CCCN(C)C1CN(Cc2cn(CCCOC)nn2)S(=O)(=O)C1 (stereo not drawn)
  3 | . | . | 4
O=C(CCNC(=O)c1ccco1)NNC(=O)c1ccc(Br)cc1
  1 | . | . | 5
CCCCCC(=O)N1C[C@H](O)[C@@H](n2cc(-c3ccc(F)cc3)nn2)C[C@@H]1c1ccc(Cl)cc1
  -4 | . | . | -12
CN(CC(=O)Nc1ccc(Cl)c(Cl)c1)C(=O)CNC(=O)Cc1ccccc1
  4 | . | . | -1
CCOC(=O)c1c(-c2ccc(OC)cc2)oc2c1C(OC(C)=O)CCC2 (stereo not drawn)
  3 | . | . | 2
Cc1cccc(C)c1NC(=O)CNC(=O)C1CCCN(C(=O)c2ccc(Cl)cc2)C1 (stereo not drawn)
  1 | . | . | -2
O=C(COC(=O)c1ccco1)Nc1nnc(-c2ccccc2)o1
  . | 4 | i | .
CCCn1c(N)c(N(CCOC)C(=O)C(C)Oc2ccc(F)cc2)c(=O)[nH]c1=O (stereo not drawn)
  2 | . | i | 1
Cc1ccc(CNC(=O)COC(=O)CCOc2ccc(C)cc2)cc1
  0 | . | i | 6
Cc1cccnc1NC(=O)c1ccc(S(=O)(=O)NCc2ccco2)cc1
  -2 | . | i | -1

High-throughput results from PubChem.
